Source: PubChem BioAssay
KCNQ2 enhance: enhances the rat KCNQ2 potassium channel | B-score at 10 µM | 310,000 compounds, 0.54% hits | CHO-K1 KCNQ2, FluxOR thallium flux fluorescence; active compounds read high | AID 2239;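 active = fluorescence ratio B-score at least 3 SD of library B-scores, with initial fluorescence B-score within 3 SD, cut at about 5.3 in these data; same plate scores as AID 2156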;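 also: B-score of peak minus minimum over baseline fluorescence ratio after K+ and Tl+ stimulus; positive B-score means potentiation of KCNQ2 with more thallium influx and brighter signal; only the inactives scoring about 0 or higher are listed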
Target sequence (O88943 whole entry, looked up): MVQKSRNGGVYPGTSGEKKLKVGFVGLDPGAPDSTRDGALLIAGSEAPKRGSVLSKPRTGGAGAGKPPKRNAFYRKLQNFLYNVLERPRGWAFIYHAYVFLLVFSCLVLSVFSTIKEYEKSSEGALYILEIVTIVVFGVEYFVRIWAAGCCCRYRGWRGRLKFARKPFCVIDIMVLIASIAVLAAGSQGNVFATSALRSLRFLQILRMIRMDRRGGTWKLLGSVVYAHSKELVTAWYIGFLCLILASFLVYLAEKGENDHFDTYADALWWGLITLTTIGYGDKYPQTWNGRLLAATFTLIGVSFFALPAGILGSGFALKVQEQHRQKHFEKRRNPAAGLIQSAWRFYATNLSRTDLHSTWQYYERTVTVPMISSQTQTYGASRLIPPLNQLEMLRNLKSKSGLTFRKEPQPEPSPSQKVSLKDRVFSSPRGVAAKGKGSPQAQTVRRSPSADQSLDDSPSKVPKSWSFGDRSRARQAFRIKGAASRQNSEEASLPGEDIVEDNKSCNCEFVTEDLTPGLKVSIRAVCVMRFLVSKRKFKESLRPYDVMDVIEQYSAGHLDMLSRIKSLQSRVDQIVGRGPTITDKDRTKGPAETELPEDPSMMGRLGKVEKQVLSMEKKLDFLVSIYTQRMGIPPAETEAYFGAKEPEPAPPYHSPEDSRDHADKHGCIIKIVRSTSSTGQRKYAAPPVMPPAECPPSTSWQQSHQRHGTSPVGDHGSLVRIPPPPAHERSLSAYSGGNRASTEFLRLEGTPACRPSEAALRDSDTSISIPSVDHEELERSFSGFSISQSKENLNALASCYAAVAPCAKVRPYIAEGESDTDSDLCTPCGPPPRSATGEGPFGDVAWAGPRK
KCNQ2 enhance baseline: also measured in KCNQ2 enhance; calls as there; B-score; compound at 10 µM; measured here: initial fluorescence intensity artifact check;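 brightness before thallium and not channel activity; 0 = typical well and far values either way flag optical interference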
* hit, by the source's call.

KCNQ2 enhance	KCNQ2 enhance baseline	Compound
1	0.01	Cc1ccc(S(=O)(=O)Cn2nnnc2C(CC(C)C)N2CCN(C(=O)c3ccco3)CC2)cc1 (stereo not drawn)
1.1	0.01	COc1ccc(CCNC(=O)CC2SC(=NCCC(C)C)NC2=O)cc1OC (stereo not drawn)
0.3	0.16	N#CC1(NC(=O)COC(=O)Cn2[nH]c(=O)c3ccccc3c2=O)CCCCC1
0.03	-0.03	CCCc1nnc(NC(=O)CCC(=O)N2CCN(c3ccccn3)CC2)s1
0.05	-0.36	Cc1cccc2cc3ccccc3nc12
1.6	0.14	CCOC(=O)C1=C(C)NC(=O)/C1=C\N(C)C
1.7	-0.01	COC(=O)c1ccccc1SC1CC(=O)N(c2cccc(C)c2)C1=O (stereo not drawn)
1.5	-0.58	Cc1nc(NC(=O)c2ccco2)sc1C(=O)Nc1ccc(Br)cc1
0.02	-0.7	CCOc1ccc(NC(=O)c2sc3nc(N4CCOCC4)c4c(c3c2N)CCCC4)cc1
0.74	-0.68	Cc1ccc(C)c(NC(=O)CSc2nc(C)cc(C)c2C#N)c1
0.04	0.54	O=[N+]([O-])c1cccc(Cl)c1NCCNS(=O)(=O)c1ccccc1
0.83	-0.72	Cc1cccc(CSCC(=O)NCc2ccc(S(N)(=O)=O)cc2)c1

The listing continues.
KCNQ2 enhance	KCNQ2 enhance baseline	Compound
0.74	0.75	COc1cccc(-c2c(C(=O)N/N=C(\C)c3cccs3)nnn2-c2nonc2N)c1
0.35	1.4	COc1cc(/C=C2/SC(=S)N(CCC(=O)Nc3ccc(C(=O)O)cc3)C2=O)cc(OC)c1OC
0.54	-0.94	CC1=CCC(C(C)(C)NC(=O)c2ccccc2)C/C1=N\O (stereo not drawn)
1.1	-1.6	CCN(CC)c1ccc(NC(=O)c2cnn(CC)c2)cc1
0.07	-0.59	Cc1ccc(NC(=O)N2CCC(C(=O)NCC(C)C)CC2)cc1
1.8	0.01	O=S(=O)(NCCNS(=O)(=O)c1ccccc1)c1ccccc1
0.13	-2.3	COC(=O)c1cccc(S(=O)(=O)N2CCC(c3nc4ccccc4o3)CC2)c1
0.48	1.8	CC1=C(C(=O)OCC(C)C)C(c2ccc(F)cc2)NC(=O)N1 (stereo not drawn)
0.87	-0.79	CC1(C)CC(=O)C=C(NCC(O)c2ccccc2)C1 (stereo not drawn)
0.43	0.12	CCOc1ccc(N=Nc2c(C)noc2C)cc1
1.4	-0.11	Cc1c(NS(=O)(=O)N2CCCC2)c(=O)n(-c2ccccc2)n1C
1.7	-0.36	O=C(O)Cn1c(COc2ccc(Cl)cc2)nc2ccccc21

Among those listed so far, these contain a carbonyl joined to an NH by a bond outside any ring.
KCNQ2 enhance	KCNQ2 enhance baseline	Compound
1.1	0.01	COc1ccc(CCNC(=O)CC2SC(=NCCC(C)C)NC2=O)cc1OC (stereo not drawn)
0.3	0.16	N#CC1(NC(=O)COC(=O)Cn2[nH]c(=O)c3ccccc3c2=O)CCCCC1
0.03	-0.03	CCCc1nnc(NC(=O)CCC(=O)N2CCN(c3ccccn3)CC2)s1
1.5	-0.58	Cc1nc(NC(=O)c2ccco2)sc1C(=O)Nc1ccc(Br)cc1
0.02	-0.7	CCOc1ccc(NC(=O)c2sc3nc(N4CCOCC4)c4c(c3c2N)CCCC4)cc1
0.74	-0.68	Cc1ccc(C)c(NC(=O)CSc2nc(C)cc(C)c2C#N)c1
0.83	-0.72	Cc1cccc(CSCC(=O)NCc2ccc(S(N)(=O)=O)cc2)c1
0.74	0.75	COc1cccc(-c2c(C(=O)N/N=C(\C)c3cccs3)nnn2-c2nonc2N)c1
0.35	1.4	COc1cc(/C=C2/SC(=S)N(CCC(=O)Nc3ccc(C(=O)O)cc3)C2=O)cc(OC)c1OC
0.54	-0.94	CC1=CCC(C(C)(C)NC(=O)c2ccccc2)C/C1=N\O (stereo not drawn)
1.1	-1.6	CCN(CC)c1ccc(NC(=O)c2cnn(CC)c2)cc1
0.07	-0.59	Cc1ccc(NC(=O)N2CCC(C(=O)NCC(C)C)CC2)cc1

(more compounds)
KCNQ2 enhance	KCNQ2 enhance baseline	Compound
0.38	-1.3	CC(=O)N1CCN(C(=O)COc2ccc3oc4c(c3c2)CCCC4)CC1
1.2	0.38	Cc1cccc(NC(=O)CNC(=O)c2cccc(-n3cccc3)c2)c1C
1.2	-1.7	O=c1c2ccccc2nc2oc3ccccc3n12
0.19	-0.17	O=C(O)CCS(=O)(=O)Cc1ccccc1Cl
0.47	2	S=C1NCCc2ccccc2C1c1ccccc1 (stereo not drawn)
0.06	3.8	O=C(CSc1cn[nH]n1)Nc1cccc(C(F)(F)F)c1
2.1	-1.4	C=C(C)CSc1nnc(-c2ccc(OC)cc2)n1N
0.47	-0.5	Cc1cc(C)nc(Sc2ncnc3c2oc2ccccc23)n1
1.8	0.3	Cc1cc(NC(=O)/C(C#N)=C/c2ccco2)n(-c2ccccc2)n1
2.2	0.65	O=C(O)/C=C\c1cn(-c2ccccc2)nc1-c1cc2ccccc2o1
1.4	-0.49	CCOc1ccc(N2C(=O)Nc3ccccc3C2(O)C(=O)N2CCN(c3ccccn3)CC2)cc1 (stereo not drawn)
0.42	1.1	Cc1oc(S(=O)(=O)N2CCOCC2)cc1C(=O)Nc1ccc(Cl)cc1

The list continues.
KCNQ2 enhance	KCNQ2 enhance baseline	Compound
0.32	2.5	Cc1cccc(C)c1NS(=O)(=O)c1ccc(OCCNS(C)(=O)=O)cc1
0.17	0.09	Cc1ccc(NC(=O)N2CCCC2c2cccs2)cc1 (stereo not drawn)
0.05	-0.48	COc1ccc(CCNC(=O)c2ccc(CN3CCC(Cc4ccccc4)CC3)cc2)cc1
4.4	-0.16	O=C(Nc1nnc(-c2cc(Cl)ccc2Cl)o1)c1ccco1
0.93	-1.1	O=C1C2C3C=CC(C3)C2C(=O)N1c1ncn[nH]1 (stereo not drawn)
0.04	0.01	OC(c1ccccc1)C1CN(Cc2ccccc2)CCC1(O)c1ccccc1 (stereo not drawn)
0.17	-1.6	CN(CC(=O)NCCc1ccccc1)S(=O)(=O)c1ccc(Br)cc1
0.96	-0.01	O=C1CCCCN1CCCC(=O)N1CCCC(Nc2ccccc2)C1 (stereo not drawn)
1.5	-1.2	O=C(N/N=C/c1ccc(Sc2ccccn2)o1)c1cccc([N+](=O)[O-])c1
1.8	-1.5	CCN(CC(=O)Nc1c(F)cccc1F)C(=O)c1ccc(=O)n(Cc2ccccc2)n1
0.16	-0.18	O=C(Nc1ccccc1O)c1c(O)c2c([nH]c1=O)CCCC2
0.1	-2.3	Cc1c(C(=O)c2ccc(Cl)c([N+](=O)[O-])c2)c2ccccn2c1CCC#N

The list goes on:
KCNQ2 enhance	KCNQ2 enhance baseline	Compound
0.02	0.24	CCCCNC(=O)Cn1cnc2sc(C(=O)OCC)c(C)c2c1=O
0.04	-1.2	CCc1noc(C)c1C(=O)N1CCC(CCC(=O)Nc2cccc(OC)c2)CC1
0.09	-2.7	COC(=O)c1cc(-c2ccc3c(c2)OCO3)nc2ccccc12
1	0.04	CN(C)CCOC(=O)c1sc2ccccc2c1Cl
0.62	0.36	COc1cc(CCC(=O)OCC(=O)Nc2ccc(C)cc2Br)cc(OC)c1OC
1.3	0.59	O=S(=O)(NC(=S)c1ccccc1)c1ccc(F)cc1
0.05	-1	O=C(NCCc1ccccc1)c1ccc2c(=O)[nH]c3c(C(=O)NCC4CCCO4)sc(=S)n3c2c1 (stereo not drawn)
1.9	-1.1	COc1ccc(-c2cc3cccc(OC)c3oc2=O)cc1
0.07	1.3	COc1ccc(S(=O)(=O)NCC2CCCO2)cc1NC(=O)c1ccccc1 (stereo not drawn)
0.03	1.3	O=C(Nc1ccc(N2CCOCC2)cc1)c1ccc(S(=O)(=O)N2CCCCC2)cc1
0.63	-1.4	O=C(NCCc1ccc(Cl)cc1)C1CCN(C(=O)c2ccc(F)cc2)CC1
0.87	2.3	CCOC(=O)c1ccc(NC(=O)c2ccc(NS(C)(=O)=O)cc2)cc1

Following part:
KCNQ2 enhance	KCNQ2 enhance baseline	Compound
0.11	-1.3	O=C(N/N=C/c1ccc2c(c1)OCO2)c1ccc(Br)o1
0.16	-2	COc1ccccc1/C=C/C(=O)NC(=S)Nc1ccccn1
1.6	0.39	CCOC(=O)N1CCN(c2ncnc3c2[nH]c2ccc(OC)cc23)CC1
1.1	1.7	Cn1cccc1C(=O)NC(=O)COC(=O)CNC(=O)c1ccc(Cl)cc1Cl
1.7	0.25	CCC(Oc1ccc(Br)cc1Cl)C(=O)Nc1nnc(C2CC2)s1 (stereo not drawn)
0.62	0.51	CC1CCCCC1NC(=O)CSc1nnc(-c2ccccc2)n1N (stereo not drawn)
1.5	-1.3	COc1ccc([N+](=O)[O-])cc1NC(=O)CSCc1ccccc1C
2.3	-0.94	CC(Sc1ccc2ccccc2c1)C(=O)NC(N)=O (stereo not drawn)
0.78	0.31	O=C(NC1=NCCS1)c1ccccc1Br
1.4	-0.76	S=C(NCCc1ccccc1)NC1CCC(NC(=S)NCCc2ccccc2)CC1 (stereo not drawn)
0.33	1.5	COc1ccccc1NC(=O)Cc1nnc(SCC(=O)NC2CCCCC2)n1C
1.6	-0.64	N/C(Cc1ccc(Cl)cc1Cl)=N\OC(=O)c1cccs1

New compounds follow:
KCNQ2 enhance	KCNQ2 enhance baseline	Compound
0.95	0.64	Cn1cnnc1SCC(=O)Nc1ccc(S(=O)(=O)N2CCCC2)cc1
0.68	0.65	Cc1[nH]c(=S)c(C#N)c(-c2ccco2)c1C(=O)N(C)C
0.88	-1.5	Cn1c(CCN2CCOCC2)nc2cc(NC(=O)c3cccs3)ccc21
0.03	0.12	Cc1ccc(S(=O)(=O)NCC(=O)OCC(=O)NC(=O)c2cccn2C)cc1
0.83	0.4	Clc1ccc(N/N=C/c2cccs2)nn1
0.88	-1.5	CCCCOC(=O)Nc1ccc(N2CCOCC2)cc1
0.98	0.71	O=C1Nc2cc(Cl)c(Cl)cc2N(O)N1c1ccccc1Cl
1.8	0.12	COc1ccc(OCC(=O)N2CCN(C(=O)c3cccc(F)c3)CC2)cc1
1.1	0.92	COc1ccc(C(=O)NNC(=O)c2ccccn2)cc1
0.73	-0.35	COc1ccc(NC(=O)NCCCN2CCCC2=O)c(OC)c1
1.2	-2.9	CN(C)c1ccc(NC(=O)c2ccncc2)c2ccccc12
0.01	1.3	CCC(=O)c1cn(CC(=O)NCc2ccco2)c2ccccc12

Later entries:
KCNQ2 enhance	KCNQ2 enhance baseline	Compound
0.53	-1.9	O=S(=O)(Nc1ccc(O)c(Sc2nc3ccccc3s2)c1)c1cccc2ccccc12
1	-1.8	Cc1ccc(C2C(C(=O)c3ccco3)=C(O)C(=O)N2c2ncccn2)cc1 (stereo not drawn)
0.03	-0.27	CC(C)CCn1c(SC(C)C(=O)NC2CC2)nc2ccccc2c1=O (stereo not drawn)
0.79	0.72	CC(=O)NC12CC3CC(CC(CC(=O)O)(C3)C1)C2
0.89	-1.1	CCn1cc(C(=O)N2CCN(c3ccc(F)cc3)CC2)c2cc(OC)c(OC)cc2c1=O
0.67	0.17	O=C1C2C3c4ccccc4C(c4ccccc43)C2C(=O)N1Cc1cccnc1 (stereo not drawn)
2.2	-1.2	COc1ccc(N2C(=O)C3CCCN3C2c2ccccc2F)cc1 (stereo not drawn)
0.3	-0.29	Cc1cc(/C=C2/SC(=S)N(c3cccc(Cl)c3)C2=O)c(C)n1-c1cccnc1
1.4	-0.36	Cc1ccc(-c2cc(C(=O)O)n(-c3ccc(S(N)(=O)=O)cc3)n2)cc1
1.4	-3.7	CC(C)c1nnc(NC(=O)C2CCCN2C(=O)Nc2cccc(Cl)c2)s1 (stereo not drawn)
1.9	-1.4	CC1CCN(S(=O)(=O)c2ccc(NC(=O)CN3CCCC3)cc2)CC1
0.64	-0.3	COc1ccc(/C=N/OC/C(O)=C(\C#N)c2nc3ccccc3[nH]2)cc1OC

Additional records:
KCNQ2 enhance	KCNQ2 enhance baseline	Compound
0.47	0.44	C=CCOC(=O)C1=C[C@H](c2cn(C(C)=O)c3ccccc23)[C@@H](CCCO)[C@H](OCC)O1
0.58	0.44	CN1CCN(CCCNC(=S)Nc2ccc(F)c(Cl)c2)CC1
0.22	-0.01	COc1ccc(C(=O)NNC(=O)CN2CCC(n3nnc4cc(C)ccc43)CC2)cc1
3.1	-1.6	O=C(O)c1ccc(CN2C(=O)c3ccc(C(=O)O)cc3C2=O)cc1
1	0.64	CC(C)CCn1nnnc1CN1CCN(c2ccc(F)cc2)CC1
0.32	-0.35	CCOC(=O)CNC(=O)N1CCCC(C(=O)c2cccc(Cl)c2)C1 (stereo not drawn)
0.37	-0.11	CC1CN(c2cnn(C(C)C)c(=O)c2Cl)CC(C)O1 (stereo not drawn)
0.1	1.9	O=C(c1cccnc1NCc1ccccc1)N1CCOCC1
0.19	-1.6	COc1cccc(NC(=O)N(CCN(C)C)C(C)c2cccnc2)c1 (stereo not drawn)
0.17	0.29	CC(=O)c1cccc(NC(=O)C2C3CCC(C3)C2C(=O)O)c1 (stereo not drawn)
0.01	0	Cc1c(C(=O)N2CCN(c3ccccc3)CC2)sc2nc3n(c(=O)c12)CCC3
1.1	-0.38	CCCN1CCC(NC(=O)Nc2cccc3ccccc23)CC1

Later entries:
KCNQ2 enhance	KCNQ2 enhance baseline	Compound
0.8	0.19	Cc1nc(S(=O)(=O)Nc2ccccc2C(=O)NCC2CC2)cn1C
0.83	-2.4	Cc1cc(Cl)cc(Cl)c1OCC(=O)NCc1ccco1
0.79	-1.9	CSc1cccc(NCc2ccc([N+](=O)[O-])cc2)c1
1.5	0.03	Oc1cccc2ccc(/C=C/c3cccs3)nc12
1.2	-0.22	CCOc1ccccc1N(CC(=O)NCCc1ccc(OC)c(OC)c1)S(=O)(=O)c1ccccc1
1.6	0	O=C(N/N=C/c1ccco1)c1cc(-c2ccccc2)n[nH]1
1.8	2.4	O=C(Nc1ccc(Cl)cc1)C1CCN(C(=O)c2ccco2)CC1
1.5	-0.13	O=C(C1CCN(S(=O)(=O)c2ccc(-n3cnnn3)cc2)CC1)N1CCCCC1
0.01	-1.1	COc1cc(/C=N/n2cnc3c(sc4nc(C)cc(C)c43)c2=O)ccc1O
0.45	0.66	CC1CCCC(C)N1CCCNC(=O)c1nn(C)c2c1CSc1ccccc1-2 (stereo not drawn)

Not all compounds are listed (hit frequency here may not be typical).
